VDR inhibitor – blocks the human vitamin D receptor; P11473; Potency, µM, for inactives: max response, negative = inhibition, actives largely listed as inhibitors; VDR-SRC2-3 peptide fluorescence polarization, 2 h; 400,000 tested, 0.93% active; active means well fitted inhibition curve with a large enough effect; inconclusive means small, poorly fitted or top-dose-only effect, or another doubt; inactive means no such curve, though single readings can be large or run the other way; further: series mostly up to about 120 µM
Target sequence (P11473 whole entry, looked up): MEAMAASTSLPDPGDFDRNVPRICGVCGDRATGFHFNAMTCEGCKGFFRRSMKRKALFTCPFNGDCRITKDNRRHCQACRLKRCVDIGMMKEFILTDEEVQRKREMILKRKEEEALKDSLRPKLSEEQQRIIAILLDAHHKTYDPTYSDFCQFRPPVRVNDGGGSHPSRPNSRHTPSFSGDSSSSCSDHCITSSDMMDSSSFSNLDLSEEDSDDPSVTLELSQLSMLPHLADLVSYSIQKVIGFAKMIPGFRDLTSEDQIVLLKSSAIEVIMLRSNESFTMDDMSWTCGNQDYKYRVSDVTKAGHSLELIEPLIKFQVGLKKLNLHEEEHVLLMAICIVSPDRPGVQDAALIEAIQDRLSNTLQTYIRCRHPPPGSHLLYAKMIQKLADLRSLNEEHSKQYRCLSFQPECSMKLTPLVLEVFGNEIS
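Fluorescence polarization assay of small-molecule disruption of VDR binding to coregulator peptide SRC2-3. Compounds and controls pin-transferred, then read after 2 h incubation at ambient room temperature.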
Active calls of the source: *; ? = inconclusive; & = joins results of further samples. On the % scale 0 is the no-effect control and ±100 the full control effect; potency means the concentration at half of the fitted maximal effect.

| structure | VDR inhibitor |
| --- | --- |
| COc1ccccc1NC(=O)c1ccc(NC(=O)CN2CCN(C(=O)c3ccco3)CC2)cc1 | -18% |
| CCCC(C(=O)Nc1ccc(S(=O)(=O)Nc2ncccn2)cc1)c1ccccc1 (stereo not drawn) | -5% |
| COC(=O)c1cscc1S(=O)(=O)Cc1ccccc1 | -17% |
| COc1ccc(Cn2c(N)c(C#N)c3nc4ccccc4nc32)cc1OC | -16% |
| CC1CCN(C(=O)/C=C/c2ccc(C(C)(C)C)cc2)CC1 | -27% |
| COc1ccccc1CNC(=O)c1c(-c2ccccc2)nn(-c2ccccc2)c1C | -11% |
| CCOC(=O)/C(=N\Nc1ccc(Cl)cc1)c1csc(Nc2ccccc2)n1 | 4% |
| Cc1nnc(SCC(=O)Nc2ccc(Cl)cn2)[nH]c1=O | 3% |
| COC(=O)[C@@]1(C)[C@H]2C(=O)N(Cc3ccccc3)C(=O)[C@H]2[C@H]2CN=C(SC)N21 | -14% |
| Brc1cccc(CNc2nc3ccccc3n2CCN2CCOCC2)c1 | -5% |
| CSc1ccccc1NC(=O)COC(=O)Cc1ccsc1 | -5% |
| Cc1ccc(NC(=O)CC2Sc3ccccc3NC2=O)c(C)c1 (stereo not drawn) | 3% |
| CN1C(=O)C(C)(C)c2cc(S(=O)(=O)NCc3ccc(C(=O)NCc4ccco4)cc3)ccc21 | -12% |
| CCN(CC)CCOC(=O)c1ccc(NC(=O)c2cc3cc(OC)ccc3oc2=O)cc1 | -3% |
| Cn1ccc(C(=O)N/N=C/c2ccccc2[N+](=O)[O-])n1 | 0% |
| CCC(=O)NCCCOc1ccccc1 | 8% |
| CCOC(=O)c1ccc(NNC(C)=O)c([N+](=O)[O-])c1 | -11% |
| COc1ccc(C2CC(c3ccc(C)cc3)=NN2C(=O)c2ccccc2)cc1 (stereo not drawn) | -11% |
| COc1ccccc1N1CCN(C(=O)CSc2n[nH]c(-c3ccccc3Cl)n2)CC1 | 0% |
| O=C(COc1ccc(F)cc1)N(Cc1cccc(Br)c1)C1CCS(=O)(=O)C1 (stereo not drawn) | ? |
| CCn1c(SCC(=O)Nc2cccc(O)c2)nc2c1c(=O)n(C)c(=O)n2C | -11% |
| O=C(OCCN=C1NS(=O)(=O)c2ccccc21)c1cccnc1 | 1% |
| COc1ccc(-c2noc(-c3ccc(NC4CCCCC4)c([N+](=O)[O-])c3)n2)cc1OC | 9% |
| Cc1ccc(N2C(=O)C3NN=C(C(=O)OCc4ccccc4)C3C2=O)cc1 (stereo not drawn) | -12% |
| CCCNC(=O)CCn1nc(-c2ccccc2)c2ccccc2c1=O | 2%&-2% |
| Cc1csc2ncc(C(=O)NC(C)c3ccccc3)c(=O)n12 (stereo not drawn) | -5% |
| c1ccc(CN2CCN(CCOCCOc3cccc4ccccc34)CC2)cc1 | 15% |
| COc1cccc(-n2nnnc2SCC(=O)Nc2cccc(C)n2)c1 | 8% |
| Cc1nc(N)sc1-c1nnc(SCC(=O)Nc2ccccc2C(F)(F)F)n1C | 15% |
| Cc1cccc(C)c1OCCn1c(C2CC(=O)N(Cc3ccc(F)cc3)C2)nc2ccccc21 (stereo not drawn) | 19% |
| CCOC(=O)c1sc2nc(C)cc(-c3ccccc3)c2c1N | -29% |
| O=C(N/N=C/c1cccnc1)c1cccc(S(=O)(=O)N2CCCC2)c1 | -1% |
| COc1ccccc1N1CCN(C(=O)CCn2cnc3onc(-c4ccc(F)cc4)c3c2=O)CC1 | 12% |
| C#CCOCCOCCOCCNc1nc(N2CCN(C(=O)[C@H](C(C)C)n3cc(CCO)nn3)CC2)nc(N2CCN(C(=O)[C@H](CCCCN)n3cc(CCCC)nn3)CC2)n1 | -16% |
| Cc1nc(N2CCN(c3ccccc3)CC2)[nH]c(=O)c1CCC(C)C | 10% |
| Cc1coc2c(C)c3oc(=O)c(CCC(=O)NCCN4CCOCC4)c(C)c3cc12 | -6% |
| CCc1ccc(NC(=O)c2cnc3scc(C)n3c2=O)cc1 | 11% |
| Nc1cccc2c1C(=O)N(C(=O)c1cccc(S(=O)(=O)N3CCCC3)c1)C2=O | -19% |
| CCOC(=O)/C=C/C(=O)OCC(=O)Nc1ccc(Cl)cn1 | 20% |
| CCc1ccc(NC(=O)CSc2nnc(CNC(=O)c3ccco3)o2)cc1 | 6% |
| O=S(=O)(c1ccc(Cl)cc1)N1CCN=C1SCc1cccc(Cl)c1 | -6% |
| Cc1ccc(O)c(NC(=O)COc2cc(C)ccc2C)c1 | 5% |
| O=C(c1cccn2c(=O)c3ccc(Cl)cc3nc12)N1CCN(Cc2ccc3c(c2)OCO3)CC1 | 5% |
| O=c1[nH]c(=S)c2[nH]c(=S)n(-c3ccccc3)c2[nH]1 | -1% |
| COc1ccc(/C=C/C(=O)NCCSCc2ccco2)cc1 | -14% |
| CCCCN(C)CCCNC(=O)Cn1c(=O)sc2ccccc21 | 6% |
| Cc1ccc(S(=O)(=O)c2cn(C)c3cc(N4CCCCCC4)c(F)cc3c2=O)cc1 | 8% |
| CCC1CCCCN1C(=O)C1CC(c2cc(Cl)c(OC)cc2OC)=NO1 (stereo not drawn) | 5% |
| C/C(=N\NC(=O)c1cccc(N/N=C(\C)c2ccco2)c1)c1ccco1 | 0% |
| O=C(CC1(CC(=O)N2CCOCC2)CCCC1)Nc1ccccc1 | -1% |
| Cc1ccc(S(=O)(=O)N/N=C/c2c(F)cccc2Cl)cc1 | -2% |
| O=C(Cc1cc(=O)[nH][nH]1)N/N=C/c1cccc2ccccc12 | 12% |
| Cc1ccc(NC(=O)COC(=O)CN2C(=O)c3ccccc3C2=O)cc1 | -11% |
| C=CCc1cccc2cc(C(=O)NC)c(=O)oc12 | -17% |
| O=S(=O)(c1ccccc1C(F)(F)F)N1CCOCC1 | -13% |
| CCOCCCNC(=O)c1ccc(-n2c(-c3ccccc3)cc3c2CCC(C)C3)cc1 (stereo not drawn) | 13% |
| O=C(NNC(=O)c1cccc(-n2cnnn2)c1)c1ccccc1 | -17% |
| C=CC[C@H](CC(=O)NCCO)C(=O)N[C@H](COC(=O)[C@@H](CC=C)Cc1ccc(F)cc1)c1ccccc1 | -20% |
| CCN(C(=O)Cc1nc(N)n[nH]1)C1(C(=O)Nc2ccccc2)CCCCC1 | 12% |
| C=CCc1ccc(OCC(O)CN2CCN(Cc3ccccc3)CC2)c(OC)c1 (stereo not drawn) | -6% |

The results go on.
| structure | VDR inhibitor |
| --- | --- |
| COc1ccccc1NC(=O)C1=C(C)Nc2nc3ccccc3n2C1c1ccccc1Cl (stereo not drawn) | -2% |
| CC(=O)c1cccc(NC(=O)NCCc2ccc(Cl)cc2)c1 | -4% |
| O=C(Nc1ccc(Cl)cc1)N(Cc1nc2ccccc2c(=O)[nH]1)Cc1cccs1 | -8% |
| CC(/C=C/c1ccco1)=N\NC(=O)c1cccnc1 | -6% |
| Cc1ccc(-c2csc3ncnc(Oc4ccc5c(C)cc(=O)oc5c4)c23)cc1 | -2% |
| CN(C)CCN(C(=O)/C=C/c1cccs1)c1nc2ccc(Br)cc2s1 | -3% |
| O=C(O)CSCC(=O)Nc1ccc(C(=O)O)cc1 | -4% |
| CC1Cc2ccccc2N1S(=O)(=O)c1cnc(Cl)c(Cl)c1 (stereo not drawn) | -9% |
| COc1ccc(C(NC(=O)CNC(C)=O)C(=O)Nc2ccc(C(C)C)cc2)cc1 (stereo not drawn) | -5% |
| FC(F)(F)c1ccccc1NC(=S)NC1CCN(Cc2ccccc2)CC1 | -3% |
| Cc1ccc2cc(/C=C(\C#N)C(N)=O)c(N3CCCCC3)nc2c1 | 6% |
| O=C1Nc2c(c(=O)[nH]c(=O)n2-c2ccc(Cl)cc2)C1(NS(=O)(=O)c1ccccc1)C(F)(F)F (stereo not drawn) | 5% |
| COC(=O)C(NC(=O)c1ccccc1)(Nc1nc(C)cs1)C(F)(F)F (stereo not drawn) | 7% |
| Cc1ccc(CNC(=O)CN2Cc3ccccc3C2=O)cc1 | -1% |
| CCC(C(=O)Nc1ccccc1OC)n1nc(C)c2sc3ccccc3c2c1=O (stereo not drawn) | 7% |
| CCOc1ccccc1NC(=O)c1cccc2c1C(=O)N(CCOC)C2 | -12% |
| Cc1cc(=O)[nH]c(=S)n1-c1ccccc1 | -3% |
| COc1ccc(Cl)cc1NC(=O)CC1CCCC1 | -5% |
| CCCn1c(C)cs/c1=N\C(=S)Nc1ccccc1 | -1% |
| COCCN1Cc2c(sc(C)c2C)N(C(=O)c2ccccc2)C1 | 1% |
| COc1cc(C2C(C(=O)c3cc4ccccc4o3)=C(O)C(=O)N2c2cc(C)on2)cc(OC)c1OC (stereo not drawn) | 15% |
| CC(NC(=O)c1ccc(N(C)C)cc1)C1CC2CCC1C2 (stereo not drawn) | -17% |
| COc1ccc(OCC(=O)N/N=C2\CCc3ccccc32)cc1 | -9% |
| COc1ccc(-c2nnc(SCc3nnc(-c4cccs4)o3)n2CC2CCCO2)cc1 (stereo not drawn) | -3% |
| O=C(Nc1ccccn1)C1CCN(S(=O)(=O)c2ccc(Cl)cc2)CC1 | 14% |
| CC(C)(C)NC(=O)NC(=O)CN1CCN(S(=O)(=O)c2ccc3c(c2)OCCO3)CC1 | -13% |
| CSc1nc2sc3c(c2c(=O)[nH]1)CCCC3 | -1% |
| NC(=O)C1CCN(C(=O)CSc2ccccn2)CC1 | -6% |
| Cc1ccc(C(=O)Nc2ccc(N3CCCC3)cc2)cc1 | -4% |
| COc1ccccc1NC(=O)C1=C(C)NC(=O)NC1c1ccccc1F (stereo not drawn) | -19% |

Look-ups from the entries so far:
CC(=O)c1cccc(NC(=O)NCCc2ccc(Cl)cc2)c1 – VDR inhibitor: -4%
COC(=O)C(NC(=O)c1ccccc1)(Nc1nc(C)cs1)C(F)(F)F (stereo not drawn) – VDR inhibitor: 7%

Part of the list above in order of SMILES length, rising:
| structure | VDR inhibitor |
| --- | --- |
| O=C(O)CSCC(=O)Nc1ccc(C(=O)O)cc1 | -4% |
| Cc1ccc(-c2csc3ncnc(Oc4ccc5c(C)cc(=O)oc5c4)c23)cc1 | -2% |
| COc1cc(C2C(C(=O)c3cc4ccccc4o3)=C(O)C(=O)N2c2cc(C)on2)cc(OC)c1OC (stereo not drawn) | 15% |

Other entries follow.
| structure | VDR inhibitor |
| --- | --- |
| Cc1ccccc1Cn1ccc(NC(=O)CCSc2nc(-c3ccco3)cc(C(F)(F)F)n2)n1 | 25% |
| Cn1c(=O)c2[nH]c(N3CCCCC3)nc2n(C)c1=O | 5% |
| CC(C)(C)c1ccc(C(=O)c2c[nH]c(C(=O)NCCCN3CCOCC3)c2)cc1 | 0% |
| O=C(O/N=C1/CCCc2occc21)c1ccc(Cl)cc1Cl | 1% |
| CC(=O)Nc1ccc(C(=O)NNC(=O)c2cccc(C)c2)cc1 | -14% |
| N#C/C(=C/c1ccc(-c2ccc(S(N)(=O)=O)cc2)o1)C(=O)Nc1ccccc1 | -13% |
| Cc1ccc(NC(=O)c2c(F)cccc2Cl)cc1NS(C)(=O)=O | -3% |
| Cc1nn(-c2ccccc2)c2[nH]c(=O)c(CNc3ccc(N4CCOCC4)cc3)cc12 | -12% |
| CCN(CC)c1ccc(CNc2ccc3c(c2)ncn3C(C)(C)C)cc1 | 1% |
| CCN1CCN(CCC(=O)Nc2ccccc2OC)CC1 | -6% |
| COc1ccc(C(=O)Sc2ccc(C)cc2)cc1OC | 12% |
| COc1ccc(NC(=O)CSc2nc3ccccc3n2CC(=O)N2CCCC(C)C2)cc1 (stereo not drawn) | 10% |
| CCOc1ccc(N2C(=O)CC(Sc3nccc(C)n3)C2=O)cc1 (stereo not drawn) | -3% |
| COc1ccc(N2CCN(S(=O)(=O)c3c(C)nc4scc(C)n4c3=O)CC2)cc1 | 9%&7% |
| CC12CNCC(C)(CN(C(c3ccccc3)c3ccccc3)C1)C2 | -1% |
| CN(Cc1c(C(=O)N/N=C/c2cccc(Cl)c2)nnn1-c1nonc1N)c1ccccc1 | 8% |
| O=[N+]([O-])c1ccc(COc2ccc(-c3[nH]ncc3-c3ccccc3)c(O)c2)cc1 | -6% |
| Cc1ccc(NC(=O)c2cccs2)cc1S(=O)(=O)N(C)C | 4% |
| COc1ccc(C(=O)Nc2nnc(Cc3ccc(OC)c(OC)c3)s2)c(OC)c1 | 12% |
| COCCn1c(SCc2nc3ccccc3c(=O)[nH]2)nnc1-c1ccncc1 | -7% |
| O=C(c1ccccc1Cl)n1nc(-c2cccnc2)nc1NCc1ccc(F)cc1 | 11% |
| CCOCCCNC(=O)c1c(NC(=O)c2cc(=O)c3ccccc3o2)sc2c1CCC2 | 3% |
| COc1ccc(CCNC(=O)CCn2c(=O)c3cccn3c3cccnc32)cc1OC | -5%&1% |
| CCN(C(=O)CN1CCOCC1)c1c(N)n(Cc2ccccc2)c(=O)[nH]c1=O | -19% |
| Cn1c(=O)c2c(nc(NCc3ccc4c(c3)OCO4)n2Cc2ccccc2Cl)n(C)c1=O | -7% |
| COc1ccc(C(=O)NC(=S)NCCc2ccccc2)cc1 | -14% |
| O=C1C2CC3N1CCC31c3ccccc3-n3c1c2ccc3=O (stereo not drawn) | -4% |
| C=CCNc1nc(-c2sc(NC(C)=O)nc2C)cs1 | ? |
| O=C(C1CC1)N1CCc2cc(Br)cc(S(=O)(=O)NCCCN3CCCC3)c21 | -17% |
| CC(C1CC2CCC1C2)N1CC(O)=C(c2nc3ccccc3[nH]2)C1=N (stereo not drawn) | -3% |
| COCCNC(=O)COC(=O)c1cccnc1SC | -5% |
| Cc1cccc(OCCn2c(NC(=O)c3ccco3)nc3ccccc32)c1 | -8% |
| O=C(CN1C(=O)NC2(CCCC2)C1=O)Nc1ccccc1 | -7% |
| O=C(c1ccc(OCC2CCCO2)cc1)N1CCN(c2ccccc2)CC1 (stereo not drawn) | -4% |
| COc1ccc([C@@H]2CC(=O)c3c(O)cc(O[C@@H]4OC(CO[C@@H]5OC(C)[C@H](O)[C@H](O)C5O)[C@@H](O)[C@@H](O)C4O)cc3O2)cc1O (stereo partly drawn) | 4% |
| CN(C)S(=O)(=O)c1cccc(NC(=O)COC(=O)c2c[nH]c(=O)[nH]c2=O)c1 | -5% |
| O=C(CN1C(=O)CC(c2ccccc2)=Nc2ccccc21)Nc1ccc(Br)cc1 | 5% |
| Cc1ccc(C(=O)COC(=O)CNC(=O)Cc2ccccc2)cc1 | -2% |

Some of the compounds tested (hit frequency here may not be typical).
